Assay outcomes from PubChem BioAssay.
ERK AVP inh: inhibitors of vasopressin-stimulated ERK signaling pathway. HEK293-V1b, vasopressin-stimulated pERK AlphaScreen. Potency, µM (titrated, usually from 57.5 µM), for inactives: top-dose activity, negative = inhibition, hits mostly inhibitors. hit rate 0.99% among 72,000. AID 995; also: potency is read from the fitted curve at half-maximal effect; % is scaled to controls: 0 for no effect and ±100 for the full control effect; nearly all actives have a fitted effect of over 55% in size
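HEK293 cells stably expressing V1b receptor, seeded overnight in 1% FBS, were treated with compounds for 30 min at 37C, then stimulated 5 min with 25 nM vasopressin; phospho-ERK read by AlphaScreen SureFire after lysis.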
Luciferase inh: blocks Photinus pyralis firefly luciferase activity; Potency, µM (titrated, usually from 57.1 µM), for the others: top-dose activity change, negative = inhibition, usual class: inhibitors; AID 411; purified firefly luciferase, luminescence, 8 min; P08659; hit rate 2.2% among 72,000; also: potency is read from the fitted curve at half-maximal effect; % is scaled to controls: 0 for no effect and ±100 for the full control effect; nearly all actives have a fitted effect of over 40% in size
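Firefly luciferase (PKLight detection mix) with 10 uM ATP in pH 7.2 imidazole buffer (KCl, MgCl2, Tween 20, BSA). Compounds tested across a concentration series (qHTS). Luminescence read after 8 min at ambient temperature.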
USP2a inhib: USP2a (human) protease inhibition | O75604 | hit rate 0.1% among 60,000 | Potency, µM (titrated, usually from 38.3 µM), for inactives: top-dose activity change, negative = inhibition, most hits filed as inhibitors | USP2a enzymatic assay, qHTS inhibition;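 also: potency is read from the fitted curve at half-maximal effect; nearly all actives have a fitted effect of over 60% in size; plate controls were DMSO for no effect and NEM full inhibition control for full effect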
Target sequence (O75604 whole entry, looked up): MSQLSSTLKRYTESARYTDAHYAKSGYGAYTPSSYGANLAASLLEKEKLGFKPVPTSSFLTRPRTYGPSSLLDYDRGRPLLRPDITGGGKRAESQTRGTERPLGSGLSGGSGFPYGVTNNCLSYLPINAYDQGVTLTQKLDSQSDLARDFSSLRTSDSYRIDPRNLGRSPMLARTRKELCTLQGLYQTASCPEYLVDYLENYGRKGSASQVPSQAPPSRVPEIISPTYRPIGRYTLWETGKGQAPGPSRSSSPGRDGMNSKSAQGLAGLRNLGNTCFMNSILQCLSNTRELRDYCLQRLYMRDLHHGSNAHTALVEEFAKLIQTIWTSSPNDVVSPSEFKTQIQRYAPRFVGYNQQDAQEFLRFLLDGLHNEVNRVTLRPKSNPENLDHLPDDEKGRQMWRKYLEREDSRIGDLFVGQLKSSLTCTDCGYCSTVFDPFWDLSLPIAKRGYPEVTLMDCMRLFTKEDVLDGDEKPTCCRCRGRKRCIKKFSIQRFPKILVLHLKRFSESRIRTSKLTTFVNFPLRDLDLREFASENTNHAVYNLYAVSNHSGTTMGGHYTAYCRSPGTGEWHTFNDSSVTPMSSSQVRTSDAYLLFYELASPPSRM
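Inhibition is measured in a cell-free coupled assay with 20 nM USP2 core, 20 nM Ub-PLA2 and 20 uM NBD C6-HPC, 2.5 h incubation. Activity normalized to NEM control.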
Fluorescein autfl: compound fluoresces in the fluorescein spectral region; Compound autofluorescence, 480/540 nm, fluorescein-equivalent; active compounds read high; max fluorescein-equivalent concentration, M; hit rate 0.91% among 59,000; AID 593; in the data active = max fluorescein-equivalent concentration above about 10 nM; inconclusive = between about 1.1 nM and that limit
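Read-out is intrinsic compound fluorescence at 480/540 nm (excitation/emission), expressed as dye-equivalent concentration using a fluorescein standard series run on every plate. Compounds sat 15 min at room temperature in 100 mM Tris, pH 8.0.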
HEK293 cAMP ctrl: parental HEK293 cAMP activation (counter-screen) | parental HEK293 CNG cAMP sensor, membrane potential fluorescence | hit rate 2.5% among 73,000 | Potency, µM (highest dose often 57.1 µM), inactives show at the highest dose activation, hits mostly activators; also: potency is read from the fitted curve at half-maximal effect; % of control where 0% means no effect; nearly all actives have a fitted effect of over 55% in size
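Parental HEK 293 cells stably expressing a cAMP-gated CNG channel were loaded with membrane potential dye containing 100 uM RO 20-1724 for 60 min. Compound added for 30 min; depolarization read as fluorescence intensity at 590 nm.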
HADH2 inh: inhibitors of human HADH2 dehydrogenase; AID 886; hit rate 3.4% among 73,000; recombinant HADH2, NADH fluorescence, beta-hydroxybutyryl-CoA; Potency, µM (series often up to 57.1 µM), for the others: at the highest dose activity change, negative = inhibition, actives largely listed as inhibitors; also: potency is read from the fitted curve at half-maximal effect; % is scaled to controls: 0 for no effect and ±100 for the full control effect; nearly all actives have a fitted effect of over 60% in size; many of its hits are not listed in these tables
Target sequence (Q99714 whole entry, looked up, one chain of several): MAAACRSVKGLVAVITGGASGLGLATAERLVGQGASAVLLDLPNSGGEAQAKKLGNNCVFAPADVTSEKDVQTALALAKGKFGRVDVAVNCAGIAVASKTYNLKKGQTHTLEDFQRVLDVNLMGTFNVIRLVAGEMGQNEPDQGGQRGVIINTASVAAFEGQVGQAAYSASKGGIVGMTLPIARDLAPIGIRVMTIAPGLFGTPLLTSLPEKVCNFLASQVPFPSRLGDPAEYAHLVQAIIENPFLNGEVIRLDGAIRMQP
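E. coli-expressed His-tagged HADH2 tested at 20 nM in alkaline Tris buffer (pH 9.0); oxidation of 90 uM beta-hydroxybutyryl-CoA with 1 mM NAD+ tracked fluorimetrically for 4 min.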
TexasRed autofl: Texas Red region autofluorescence. Compound fluorescence, Texas Red channel, 547/618 nm; active compounds read high. max dye-equivalent concentration, M. hit rate 0.06% among 59,000. AID 587; in the data active = max dye-equivalent concentration above about 10 nM; inconclusive = between about 1.1 nM and that limit
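Texas Red-region profiling: compounds in 100 mM Tris pH 8.0 were read at 547/618 nm after 15 min at room temperature. Intensities were normalized against a six-point Texas Red standard series to give dye-equivalent concentration.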
Rhodamine autofl: rhodamine region autofluorescence; Rhodamine-region fluorescence, 547/598 nm, Tris buffer; active compounds read high; AID 594; hit rate 0.05% among 59,000; max dye-equivalent concentration, M; in the data active = max dye-equivalent concentration above about 11 nM; inconclusive = between about 1.1 nM and that limit
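A six-point rhodamine series on each plate calibrates the signal. Compounds sit in 100 mM Tris (pH 8.0) for 15 min at ambient temperature before imaging through 547 nm/598 nm filters.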
Tau filament bind: tau filament binding | P10636 | hit rate 2% among 71,000 | recombinant tau filaments, thioflavin S fluorescence, 15 h; filaments grown with octadecylsulfate alongside compound | Potency, µM (series often up to 57.1 µM), without a hit: at the highest dose activity change, negative = inhibition | AID 596;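 also: potency is read from the fitted curve at half-maximal effect; % is scaled to controls: 0 for no effect and ±100 for the full control effect; actives lower thioflavin S fluorescence by blocking filaments or displacing dye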
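ThS-based fibril read: tau 1 uM final, inducer ODS 30 uM final, 37 C for 15 h, ex 450/em 510 nm.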
* marks the source's active call; other numbers are inactive results; i = inactive; ? = inconclusive; nt = not tested or not shown; & = joins results of further samples; [ ] = remark or other dose. Unless noted, calls follow the shape of the dose curve; as a rule, active = well fitted curve in the direction sought with a large enough effect; inconclusive = small, poorly fitted or top-dose-only effect, or another doubt; inactive = no such curve, though single readings can be large; an effect the other way counts as inactive or inconclusive. Some of the compounds tested; the hit share may differ from the screen's.

1. COc1ccc(-c2nc3cnc(N4CCN(C)CC4)nc3n(-c3ccc(OC)cc3)c2=O)cc1
2. O=c1c(-c2ccc(Cl)cc2)nc2cnc(N3CCOCC3)nc2n1-c1ccccc1
3. COc1ccc(-c2nc3cnc(N4CCNCC4)nc3n(-c3ccc(OC)cc3)c2=O)cc1
4. Nc1ccc2c(C(F)(F)F)cc(=O)oc2c1
5. COC(=O)C1=C(C)NC2=C(C(=O)CCC2)C1c1ccccn1 (stereo not drawn)
6. CC1(C)CC(=O)C2=C(C1)N(CCN1CCOCC1)C1=C(C(=O)CC(C)(C)C1)C2c1cccc(F)c1
7. COc1ccc(Oc2ncc3nc(-c4cccs4)c(=O)n(Cc4cccc(OC)c4)c3n2)cc1
8. N#Cc1c2c(c(N3CCN(CCO)CC3)n3c1nc1ccccc13)CCCC2
Compound	1	2	3	4	5	6	7	8
ERK AVP inh	20%	2%	42%[activator]	-1%	8%	-1%	86%[activator]	?
Luciferase inh	1%[11.4 µM]	1%[11.4 µM]	0%[11.4 µM]	-1%	1%	1%	1%[11.4 µM]	2%
USP2a inhib	?	149%[activator]	71%[activator]	7%	-7%	14%	117%[activator]	2%
Fluorescein autfl	i	i	?	?	nt	?	i	i
HEK293 cAMP ctrl	-28%	7%	6%	23%	-14%	20%	?	-32%[inhibitor]
HADH2 inh	16%	13%	3%	109%[activator]	-10%	?	-1%	9%
TexasRed autofl	i	?	i	i	nt	i	i	i
Rhodamine autofl	i	i	i	i	nt	i	i	i
Tau filament bind	98%	60%	130%	i	8%	81%	2%	71%

9. COc1ccc(Oc2ncc3nc(-c4cc(F)cc(F)c4)c(=O)n(C[C@H]4CCCO4)c3n2)cc1
10. Cc1ccc2nc3c(cc(C#N)c(=O)n3CC3CCCO3)c(=O)n2c1 (stereo not drawn)
11. Nc1ccc2c(c1)C(=O)N(CC1CCCO1)C2=O (stereo not drawn)
12. CCN(CC)c1ccc(C2C(C(=O)Nc3ccccn3)=C(C)NC3=C2C(=O)CC(C)(C)C3)cc1 (stereo not drawn)
13. CNC(=O)N(c1ccccc1)c1ccccc1
14. O=C(CN1C(=O)c2cccc3cccc1c23)Nc1ccccc1C(=O)NCc1ccco1
15. CCCCNC(=O)C(C#N)c1nc2ccccc2nc1N1CCCC1 (stereo not drawn)
16. COC(=O)c1c(C#N)c(N)nc2c1CCC2
Compound	9	10	11	12	13	14	15	16
ERK AVP inh	-17%	-4%	23%	1%	-13%&-13%	-17%	-10%	-7%
Luciferase inh	-2%[11.4 µM]	1%	0%	0%	4%	-1%	3%	0%
USP2a inhib	100%[activator]	-8%	3%	39%[activator][7.66 µM]	-6%	27%	8%	-5%
Fluorescein autfl	i	?	?	nt	i	i	2.3e-07M*	i
HEK293 cAMP ctrl	17%	-5%	4%	-7%[11.4 µM]	6%	17%	-2%	0%
HADH2 inh	-17%	171%[activator]	-5%	-6%[11.4 µM]	-21%&-1%	-3%	25%	277%[activator]
TexasRed autofl	i	i	i	nt	i	i	i	?
Rhodamine autofl	i	i	i	nt	i	i	i	i
Tau filament bind	?	6%	27%	-20%[11.4 µM]	-14%&-6%	35%	51%	6%

17. CCN(CC)c1ccc(C2C(C(=O)OCCOC(C)C)=C(C)NC3=C2C(=O)CCC3)cc1 (stereo not drawn)
18. Cc1cc(NC(=O)c2cc3nc4c(c(C(F)(F)F)n3n2)CCc2ccccc2-4)no1
19. C=CCn1c(=N)c(C(=O)NCCCOC)cc2c(=O)n3ccccc3nc21
20. COC(=O)CSCc1nc2ccccc2[nH]c1=O
21. COCCn1c(=O)c(-c2cccc(C#N)c2)nc2cnc(N3CCN(C)CC3)nc21
22. Cc1ccc(C)c2nc(N3CCCC3)c(C#N)cc12
23. CC(C)OC(=O)CC(=O)c1sc2nc3c(cc2c1N)CN(C)CC3
24. COc1ccc2[nH]c(=O)c(CN(Cc3ccccc3)Cc3nnnn3CC3CCCO3)cc2c1 (stereo not drawn)
Compound	17	18	19	20	21	22	23	24
ERK AVP inh	-11%	-9%	24%	-26%	-26%	-2%	11%	-25%
Luciferase inh	0%	1%	0%	-6%	1%[11.4 µM]	1%	-4%	?
USP2a inhib	22%	-1%[7.66 µM]	1%	nt	72%[activator]	104%[activator]	22%	20%
Fluorescein autfl	nt	nt	?	nt	i	?	1.9e-07M*	?
HEK293 cAMP ctrl	-2%	5%[11.4 µM]	4%	-3%	-16%	?	6%	15%
HADH2 inh	-2%	-3%[11.4 µM]	?	13µM*	41%[activator]	-7%	?	?
TexasRed autofl	nt	nt	i	nt	i	i	i	i
Rhodamine autofl	nt	nt	i	nt	i	i	i	i
Tau filament bind	-7%	3%[11.4 µM]	29%	-7%	-11%	18%	263%	112%

From entry 17 as far as 20, copied from above:
17. CCN(CC)c1ccc(C2C(C(=O)OCCOC(C)C)=C(C)NC3=C2C(=O)CCC3)cc1 (stereo not drawn)
18. Cc1cc(NC(=O)c2cc3nc4c(c(C(F)(F)F)n3n2)CCc2ccccc2-4)no1
19. C=CCn1c(=N)c(C(=O)NCCCOC)cc2c(=O)n3ccccc3nc21
20. COC(=O)CSCc1nc2ccccc2[nH]c1=O
Compound	17	18	19	20
ERK AVP inh	-11%	-9%	24%	-26%
Luciferase inh	0%	1%	0%	-6%
USP2a inhib	22%	-1%[7.66 µM]	1%	nt
Fluorescein autfl	nt	nt	?	nt
HEK293 cAMP ctrl	-2%	5%[11.4 µM]	4%	-3%
HADH2 inh	-2%	-3%[11.4 µM]	?	13µM*
TexasRed autofl	nt	nt	i	nt
Rhodamine autofl	nt	nt	i	nt
Tau filament bind	-7%	3%[11.4 µM]	29%	-7%

Next section.
25. CC1(C)CC(=O)C2=C(C1)Nc1ccccc1N=C2
26. CCn1c(=N)c(C(=O)NC)cc2c(=O)n3cccc(C)c3nc21
27. CNC(=O)c1cc2cc(OC)ccc2oc1=N
28. N=c1c(S(=O)(=O)c2ccccc2)cc2c(=O)n3ccccc3nc2n1CCN1CCOCC1
29. CCCN1CC=C2C(C#N)=C(N)C(C#N)(C#N)C(c3cccc(OC)c3OC)C2C1 (stereo not drawn)
30. O=c1c(CCc2ccccc2)nc2cnc(N3CCNCC3)nc2n1-c1ccccc1
31. COc1ccc2c(c1)OCC1=C2CCC2(C)C(=O)CC=C12 (stereo not drawn)
32. CN1CC=C2C(C#N)=C(N)C(C#N)(C#N)C(Cc3ccccc3)C2C1 (stereo not drawn)
Compound	25	26	27	28	29	30	31	32
ERK AVP inh	-4%	1%	5%	-8%	18%	1%	-16%	-18%
Luciferase inh	?	6%	-1%	1%	-1%	1%[11.4 µM]	-2%	-3%
USP2a inhib	nt	-1%	-2%	2%	12%	66%[activator]	29%	nt
Fluorescein autfl	?	i	i	i	5.3e-08M*	i	?	3.7e-08M*
HEK293 cAMP ctrl	16%	-7%	9%	3%	22%	6%	-5%	-2%
HADH2 inh	-15%	i	-15%	-21%	?	-7%	32µM*	?
TexasRed autofl	i	i	i	i	i	i	i	?
Rhodamine autofl	i	i	i	i	i	i	i	i
Tau filament bind	i	14%	20%	-2%	i	320%	53%	i

33. O=c1cc(C(F)(F)F)c2sc(N3CCCCC3)nc2[nH]1
34. COc1ccc(-n2c(=O)c(C)nc3cnc(Nc4ccccc4)nc32)cc1
35. CC(=O)c1cc2cc(O)ccc2o1
36. COc1ccc2[nH]c(=O)c(CNC3CCCCC3)cc2c1
37. CCCCC(CC)C(=O)O (stereo not drawn)
38. COc1ccc(-n2c(NC(=O)c3ccco3)c(C#N)c3nc4ccccc4nc32)cc1
39. O=C(NCCO)c1cc2ccccc2cc1O
40. COCCn1c(=O)cnc2cnc(N(C)C)nc21
Compound	33	34	35	36	37	38	39	40
ERK AVP inh	12%	-10%	12%	1%	30%[activator]	-26%	-9%	2%
Luciferase inh	-2%	0%[11.4 µM]	0%	-1%	nt	1%	2%	2%[11.4 µM]
USP2a inhib	6%	93%[activator]	-3%	-4%	nt	?	0%	-15%
Fluorescein autfl	?	?	i	?	nt	i	i	i
HEK293 cAMP ctrl	3%	?	16%	16%	32%	-13%	-1%	2%
HADH2 inh	32µM*	10%	3.2µM*	?	-1%	-21%	15%	-10%
TexasRed autofl	?	i	i	i	nt	?	?	i
Rhodamine autofl	i	i	i	i	nt	i	i	i
Tau filament bind	9%	0%	9%	87%	1%	306%	2%	0%

41. O=c1c(-c2cccs2)nc2cnc(N3CCOCC3)nc2n1CCc1ccccc1
42. O=C(c1ccccc1)c1cc(F)c(N2CCOCC2)cc1Cl
43. Cn1cc(-c2nc3cnc(Oc4ccccc4)nc3n(C3CC3)c2=O)c2ccccc21
44. COCCn1nnnc1C(C(C)C)N(Cc1ccccc1)Cc1cc2cc(OC)ccc2[nH]c1=O (stereo not drawn)
45. COc1cccc(Nc2ncc3nc(-c4ccccc4)c(=O)n(C4CC4)c3n2)c1
46. Cc1cc(NCCCn2ccnc2)n2c(nc3ccccc32)c1C#N
47. COc1ccc(-c2nc3cnc(Oc4cccc(Cl)c4)nc3n(C3CC3)c2=O)cc1
48. Cc1ccc2nc3ccc(N4CCN(C)CC4)nn3c(=O)c2c1
49. CCNc1ccc2c(Cl)cc(=O)oc2c1
Compound	41	42	43	44	45	46	47	48	49
ERK AVP inh	31%[activator]	nt	6%	-10%	0%	-6%	5%	-4%	22%
Luciferase inh	1%[11.4 µM]	nt	0%[11.4 µM]	-2%	0%[11.4 µM]	1%	1%[11.4 µM]	7.9µM*	2%
USP2a inhib	168%[activator]	nt	18%	16%	118%[activator]	-13%	181%[activator]	-4%	4%
Fluorescein autfl	i	nt	i	i	?	i	i	?	i
HEK293 cAMP ctrl	10%	-9%	14%[2.29 µM]	?	12%	11%	18%	4%	-11%
HADH2 inh	-4%	7%	0%	-7%	4%	32µM*	4%	4%	50%[activator]
TexasRed autofl	i	nt	i	i	i	i	i	i	i
Rhodamine autofl	i	nt	i	i	i	i	i	i	i
Tau filament bind	i	nt	15%	32%	1%	29%	16%	-1%	122%
